Env fusion inh: HIV envelope-mediated fusion inhibition. HeLa-JRFL Env/CEM21 cell fusion, luciferase. inhibition, % at 12.3 µM. hit rate 1.1% among 360,000. AID 651610;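 active = mean replicate inhibition score of at least 50 and every replicate individually at or above 50; inconclusive = only one of the two criteria met; inactive = mean below 50 and not all replicates reaching 50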;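 also: 0% = plate neutral controls and 100% = maraviroc near 300 nM; one replicate is shown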
eIF4H FP inh: inhibitors of RNA binding by human eIF4H. AID 2012. inhibition, % at 35 µM. hit rate 0.94% among 290,000. eIF4H fluorescence polarization binding assay;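 active = 50% or more with normal probe brightness, or confirmed in later tests; inconclusive = above 50% with abnormal brightness, or retests that disagree; inactive = below 50% or failed in later tests; about a fifth of its hits are not listed in these tables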;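 also: calls also rest on retests at 20 µM and on dose response follow-up; 0% = protein and probe with vehicle and 100% = probe without protein; strong numbers were not always called active; many hits fall short of the cut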
PABP polyA inh: PABP-poly(A) binding inhibition. PABP-poly(A) RNA binding, fluorescence polarization. inhibition, % at 35 µM. hit rate 1% among 290,000;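 active = 50% or more with normal probe brightness, or confirmed in later tests; inconclusive = above 50% with abnormal brightness, or retests that disagree; inactive = below 50% or failed in later tests; about a fifth of its hits are not listed in these tables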;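 also: calls also rest on retests at 20 µM and on dose response follow-up; controls were probe without protein and protein plus probe with vehicle; some compounds called inactive have numbers as strong as hits; many hits fall short of the cut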
Target sequence (P11940 whole entry, looked up): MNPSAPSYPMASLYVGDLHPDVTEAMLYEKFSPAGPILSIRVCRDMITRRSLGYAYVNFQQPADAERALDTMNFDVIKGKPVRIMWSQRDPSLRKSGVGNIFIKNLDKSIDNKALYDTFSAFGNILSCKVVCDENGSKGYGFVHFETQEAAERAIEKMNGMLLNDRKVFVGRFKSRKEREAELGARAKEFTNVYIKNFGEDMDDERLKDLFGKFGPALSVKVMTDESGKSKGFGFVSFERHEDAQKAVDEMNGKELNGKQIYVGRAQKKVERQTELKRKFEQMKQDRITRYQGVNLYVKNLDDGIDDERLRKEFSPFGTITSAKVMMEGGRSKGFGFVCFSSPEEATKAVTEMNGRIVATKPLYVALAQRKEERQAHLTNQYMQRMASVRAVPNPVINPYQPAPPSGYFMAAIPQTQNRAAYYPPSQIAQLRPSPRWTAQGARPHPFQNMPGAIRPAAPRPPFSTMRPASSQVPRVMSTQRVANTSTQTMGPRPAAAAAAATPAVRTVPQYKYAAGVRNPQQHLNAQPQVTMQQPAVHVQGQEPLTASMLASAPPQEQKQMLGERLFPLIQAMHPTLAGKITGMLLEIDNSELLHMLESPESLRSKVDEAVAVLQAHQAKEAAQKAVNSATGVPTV
MT1-MMP act inh: MT1-MMP (human) activation inhibition; P50281; HT1080 RFP-PRO-GFP cells, GFP/RFP ratio fluorescence, overnight; percent of plate control window, DMSO zero; GFP/RFP ratio change, % at 20 µM; hit rate 0.061% among 360,000;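 active = GFP/RFP ratio change of at least 30% with cell ATP level not reduced by more than half and red fluorescence within 50% of control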; also: strong numbers were not always called active
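Test system: HT1080 RFP-PRO-GFP cells; Benchmarks: DMSO and RFP-L50D-GFP cell wells; Timing: cells overnight before dosing, compound overnight, 37 °C, 5% CO2; Compound: one 20 µM compound dose with 1% DMSO; Read-out: GFP/RFP fluorescence ratio.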
Rce1 inhib: blocks yeast Ras-converting enzyme. Q03530. yeast membranes, quenched prenylated peptide cleavage fluorescence. calls only. hit rate 0.27% among 290,000;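 active = fall in fluorescence gain of 50% or more versus controls, with final raw signal at or below 3038400; inconclusive = same 50% fall but final raw signal above 3038400; inactive = fall in fluorescence gain under 50%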;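 also: plate controls were neutral control wells for no effect and wells lacking membranes for full effect; tested at 10 µM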
Target sequence (Q03530 whole entry, looked up): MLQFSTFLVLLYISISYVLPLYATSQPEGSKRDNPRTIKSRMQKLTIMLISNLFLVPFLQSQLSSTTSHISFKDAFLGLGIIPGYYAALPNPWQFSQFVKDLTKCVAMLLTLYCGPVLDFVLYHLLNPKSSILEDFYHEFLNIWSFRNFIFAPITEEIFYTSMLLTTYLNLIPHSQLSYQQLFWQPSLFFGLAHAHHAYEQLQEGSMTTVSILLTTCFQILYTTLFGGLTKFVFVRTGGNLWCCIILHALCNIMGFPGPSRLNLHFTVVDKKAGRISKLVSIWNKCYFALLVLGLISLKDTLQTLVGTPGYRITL
CSC inhib: blocks cancer stem cells; inhibition, % at 7.5 µM; cancer stem cell-like cells viability, luminescence; hit rate 1.1% among 300,000;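 active = mean at 75% or more and at least half the replicates too; inconclusive = mean and replicates disagree; tested in HMLE shEcad cells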;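 also: 0% = median of negative and 100% = median of positive control wells; the first replicate is given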
Yeast UUG start: yeast start codon fidelity modulation; S. cerevisiae UUG-firefly luciferase reporter, luminescence/redox ratio; activity score, % at 18.7 µM; hit rate 0.13% among 350,000;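 active = replicate mean at a twofold rise or more, about +100% in these data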;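 also: firefly luciferase made from a UUG start codon reports start codon fidelity; reporter light over untreated wells divided by growth signal over untreated wells; some hits fall short of that in this replicate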
eIF4H FP inh retest: also measured in eIF4H FP inh; calls as there; inhibition, %; compound at 20 µM; confirmation average;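 mean of two retest wells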
PABP polyA inh retest: further read-out of PABP polyA inh, marked with its call; inhibition, %; compound at 20 µM; confirmation repeats;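 mean of two retest wells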
MT1-MMP act inh RFP: second read-out of MT1-MMP act inh, no call of its own (marks repeat the call); RFP signal change, %; measured here: RFP expression control read;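 0 = vehicle wells; hits needed this value within 50% of zero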
Active calls of the source: *; i = inactive; ? = inconclusive; nt = no result given; + = active, no number. The list is partial; rates above refer to the full screens.

SMILES | Env fusion inh | eIF4H FP inh | PABP polyA inh | MT1-MMP act inh | MT1-MMP act inh RFP | Rce1 inhib | CSC inhib | Yeast UUG start | others
COc1ccc(NS(=O)(=O)c2cccc(Cl)c2Cl)cc1S(=O)(=O)N1CCCCC1 | 9 | -13 | -3 | -4 | -6 | i | 42 | nt
CCOC(=O)C1CCCN(C(=O)c2ccc([N+](=O)[O-])c(C)c2)C1 (stereo not drawn) | -6 | 3 | 4 | 2 | 1 | i | -2 | -13
COc1ccc(NC(=O)Nn2cnnc2)cc1OC | -11 | 19 | -10 | -4 | 0 | i | -1 | -17
Cc1ccccc1OCCN1C(=O)C(=O)c2cccc(C)c21 | nt | -6 | 14 | -2 | 4 | i | nt | nt
Cc1cccc(OCc2nnc(SCc3nc4cc(C(F)(F)F)ccc4c(=O)[nH]3)o2)c1 | 23 | 22 | 25 | -12 | 3 | i | 22 | -1
O=C(Nc1ccccc1C(=O)Nc1ccccn1)c1cc(F)c(F)cc1Cl | -4 | 0 | 0 | 0 | 3 | i | nt | -8
CCCC(=O)c1ccc(N2CCN(C(=O)c3ccc(Br)cc3)CC2)c(F)c1 | nt | 6 | 0 | 6 | -7 | i | 10 | -11
O=C(CSCc1ccc([N+](=O)[O-])cc1)Nc1ccccc1C(=O)O | 3 | -2 | -10 | 1 | 4 | i | -7 | -6
C/C(=C\C(=O)c1ccccc1)Nc1ccc(Cl)c(Br)c1 | nt | nt | nt | -22 | 4 | i | 19 | -21
CC(C)c1ccc(/C=N/NC(=O)c2nnn(-c3nonc3N)c2CSC2=NCCS2)cc1 | 18 | -9 | -12 | -2 | -10 | i | 42 | nt
Cc1ccc(C)c(CNS(=O)(=O)c2c(C)[nH]c(C)c2C(=O)N2CCCC2)c1 | -4 | -12 | -2 | -1 | 0 | i | -24 | 10
O=C(COc1ccccc1Cl)NCCCNC(=O)c1cnccn1 | 7 | 1 | 4 | 2 | 1 | i | nt | 15
Oc1ccc(NC(=S)Nc2ccc(O)cc2)cc1 | -11 | 24 | 12 | 9 | 10 | i | -6 | nt
Cn1cnc2nc3n(c2c1=O)CCC3 | -54 | -15 | 6 | 4 | 4 | i | 4 | -20
COc1cc(-c2nc3ccccn3c2N)ccc1O | -13 | 2 | -2 | 0 | 0 | i | -12 | -18

The final 4 compounds of the section above lead into the next.
SMILES | Env fusion inh | eIF4H FP inh | PABP polyA inh | MT1-MMP act inh | MT1-MMP act inh RFP | Rce1 inhib | CSC inhib | Yeast UUG start | others
O=C(COc1ccccc1Cl)NCCCNC(=O)c1cnccn1 | 7 | 1 | 4 | 2 | 1 | i | nt | 15
Oc1ccc(NC(=S)Nc2ccc(O)cc2)cc1 | -11 | 24 | 12 | 9 | 10 | i | -6 | nt
Cn1cnc2nc3n(c2c1=O)CCC3 | -54 | -15 | 6 | 4 | 4 | i | 4 | -20
COc1cc(-c2nc3ccccn3c2N)ccc1O | -13 | 2 | -2 | 0 | 0 | i | -12 | -18
CCn1c(SCC(=O)Nc2ccccc2OC)nc2ccccc2c1=O | -3 | 5 | -11 | 0 | -3 | i | 0 | nt
O=C(Nc1cc(=O)[nH]c2ncnn12)c1ccc(Cl)cc1Cl | nt | 5 | 4 | 2 | 0 | i | 4 | -14
O=C(O)C1CCCC2CN3CCc4c([nH]c5ccccc45)C3C(O)C21 (stereo not drawn) | 5 | ? | ? | -16 | 9 | i | -10 | -12
COc1ccc(NC(=O)CSc2nc3ccccc3c(=O)n2CCNC(C)=O)c(OC)c1 | -5 | 4 | 6 | 8 | 0 | i | -3 | 10
CCn1c(SCc2nc3sc(C(=O)O)c(C)c3c(=O)[nH]2)nnc1-c1ccc(Cl)cc1 | -25 | 4 | 11 | -1 | 4 | i | -9 | nt
Cc1ccc(S(=O)(=O)Nc2ccc3c(c2)C(=O)c2ccccc2-3)cc1 | -13 | nt | nt | 2 | 1 | nt | nt | -3
O=C(C[n+]1ccc(-c2cc(C(=O)Nc3cccc(C(F)(F)F)c3)c3ccccc3n2)cc1)c1cccc([N+](=O)[O-])c1 | 7 | -11 | 8 | 2 | -1 | i | 24 | 16
COCc1cc(C)nc(NCCc2ccccc2)c1C#N | nt | -4 | 4 | 1 | 3 | i | -13 | 4
COc1ccc(NC(=O)CN(C)C(=O)c2ccc(-c3cccc(C(F)(F)F)c3)o2)cc1 | nt | -15 | 3 | 0 | 0 | i | -9 | 10
COc1cc(NC(=S)N2CCN(C)CC2)cc(OC)c1 | 3 | -2 | 7 | -2 | -2 | i | 6 | -26
Cc1cccc(NC(=S)N/N=C2/CCCCc3ccccc32)c1 | nt | 12 | -10 | 9 | 3 | i | 44 | 8
CCC(CC)C(=O)Nc1cc([N+](=O)[O-])ccc1F | 7 | -4 | 5 | 2 | 5 | i | -9 | nt
COc1ccc(CCNC(=O)c2cc3c(=O)n4ccccc4nc3n(CCCN3CCOCC3)c2=N)cc1 | 17 | -2 | 12 | -3 | -1 | i | -1 | -28
Cn1c(=O)n(C)c2cc(/C=N/n3cnnc3)ccc21 | -9 | -12 | -4 | 5 | -1 | i | -12 | nt
O=C(CSc1ncnc2sc3c(c12)CCCC3)c1ccccc1 | 19 | 1 | -4 | -4 | -5 | i | 35 | -21
Cc1ccc(-n2c(SCC(=O)NCc3ccco3)nnc2-c2cccnc2)c(C)c1 | -1 | nt | nt | 1 | 3 | i | -14 | -9
COc1ccc2c(c1)C(C)CC(C)(C)N2C(=O)CSc1nc2ccccc2s1 (stereo not drawn) | -55 | -13 | 22 | -17 | -14 | i | -6 | -7
O=C(COc1c(Br)cc(Br)cc1Br)N/N=C/c1ccco1 | nt | -8 | 4 | -1 | 4 | i | -22 | -15
CN(CCC1CCOCC1)C(=O)C1CCC(=O)N(CCc2ccccc2)C1 (stereo not drawn) | 3 | -12 | -15 | -1 | 2 | i | -7 | -4
COc1ccc(OC)c(NC(=O)CSc2nc3cccnc3n2C)c1 | -19 | 8 | -2 | -1 | -2 | i | -7 | 6
Cn1cccc1/C=C1\SC(=O)N(CC(=O)Nc2ccc(Cl)cc2)C1=O | nt | -6 | 6 | 3 | 2 | i | -5 | -8
CCCCC(=O)Nc1cccc(-c2cn3ccsc3n2)c1 | nt | -6 | 13 | 3 | 2 | i | 4 | nt
CC(c1ccccc1)C1C(C#N)=C(N)OC2=C1C(=O)CC(C)(C)C2 (stereo not drawn) | 7 | -4 | 6 | 5 | -2 | nt | -13 | 28
COc1ccccc1C(=O)NC(=S)N1CCc2ccccc21 | 13 | -11 | -1 | 2 | -1 | i | -17 | nt
COc1ccc2c(c1OC)C(=O)N1C2SC[C@H]1C(=O)NC1CCCC1 (stereo partly drawn) | 1 | -11 | -2 | 1 | -3 | i | -9 | -5
CCOc1cc(C2Nc3cccc4cccc(c34)N2)ccc1O | nt | 47 | 30 | 16 | -4 | i | -1 | 19
COc1ccccc1-c1ccc(SCC(=O)NC2CCCC2)nn1 | -6 | nt | nt | 2 | 0 | i | 1 | -10
CC(=O)Nc1ccc(-c2ccnc3c2CC(C(=O)Nc2cccc(OC(F)(F)F)c2)O3)cc1 (stereo not drawn) | -13 | nt | nt | 2 | -7 | nt | nt | -13
CCc1nnc(NC(=O)C23CC4CC(CC(C4)C2)C3)s1 | -11 | -2 | 3 | 0 | -2 | i | -1 | -15
O=C(Nc1cc(C(F)(F)F)ccc1F)C1CCCCC1 | nt | 3 | 1 | 6 | 4 | i | 11 | nt

Structural class: the entries above with bromine.
SMILES | Env fusion inh | eIF4H FP inh | PABP polyA inh | MT1-MMP act inh | MT1-MMP act inh RFP | Rce1 inhib | CSC inhib | Yeast UUG start | others
CCCC(=O)c1ccc(N2CCN(C(=O)c3ccc(Br)cc3)CC2)c(F)c1 | nt | 6 | 0 | 6 | -7 | i | 10 | -11
C/C(=C\C(=O)c1ccccc1)Nc1ccc(Cl)c(Br)c1 | nt | nt | nt | -22 | 4 | i | 19 | -21
O=C(COc1c(Br)cc(Br)cc1Br)N/N=C/c1ccco1 | nt | -8 | 4 | -1 | 4 | i | -22 | -15

The listing continues.
SMILES | Env fusion inh | eIF4H FP inh | PABP polyA inh | MT1-MMP act inh | MT1-MMP act inh RFP | Rce1 inhib | CSC inhib | Yeast UUG start | others
CN=C(NC(=O)Nc1c(C)cccc1C)NC(=O)Nc1c(C)cccc1C | 10 | 4 | -9 | 6 | 6 | i | -9 | -20
CN(Cc1ccccc1)c1nc(CN2CCOCC2)nc2scc(-c3ccccc3)c12 | -4 | -1 | -1 | -8 | -7 | i | 19 | -20
Cc1cccc(N2CCN(C(=O)CS(=O)(=O)Cc3nc(-c4ccccc4F)oc3C)CC2C)c1 (stereo not drawn) | 17 | -3 | 0 | 5 | -13 | i | 5 | -13
CCN1C(=O)C(=O)N(CC(=O)Nc2cccc(C(F)(F)F)c2)C1=O | -4 | nt | nt | 0 | 3 | nt | -15 | nt
CCN(CC(=O)Nc1ccc(NC(C)=O)cc1)C(=O)Cc1ccccc1F | 0 | 1 | 2 | -1 | 1 | i | -4 | -32
CC(C)(C)CN1CCC(Oc2cccc(C(=O)NCCCOc3cccnc3)c2)CC1 | -3 | 0 | 15 | -9 | 2 | i | -1 | -15
Cc1ccc(OCCC(=O)OC(C)C(=O)NC2CC2)cc1 (stereo not drawn) | 1 | nt | nt | 5 | 0 | i | -4 | -8
Cc1nc(CC(=O)N2CCN(S(=O)(=O)c3ccccc3C#N)CC2)cs1 | -53 | -3 | 4 | -1 | 3 | i | -7 | -9
Cc1c2ccccc2nc2c(F)c(NC(C)C)c(F)c(F)c12 | -18 | 82* | + | -50 | 12 | i | 8 | nt | eIF4H FP inh retest=94*;PABP polyA inh retest=99*
O=S(=O)(Nc1cccc2c1ccc1cccn12)c1cccs1 | -108 | 32 | 19 | -13 | 2 | i | -3 | -11
CSCC(=O)Nc1nc(-c2ccc3c(c2)OCCO3)cs1 | -64 | -8 | 4 | 1 | -12 | i | -10 | nt
Cc1ccc(N(Cc2ccc([N+](=O)[O-])cc2)C(=O)c2ccco2)cc1 | -10 | 1 | 6 | 1 | -4 | i | 8 | -21
CCCCn1nc2cc(C(=O)NCc3ccc(C(F)(F)F)cc3C(F)(F)F)ccc2c1OCC | -54 | -6 | 3 | -2 | -1 | i | 29 | -15
Clc1ccc(-n2nnc(-c3nccs3)n2)cc1Cl | nt | -14 | 4 | 2 | 3 | i | 3 | -27
CN(C)c1ccc(C(=O)OCC(=O)NC2CCCCCC2)cc1 | -6 | 8 | -2 | 4 | -2 | i | 4 | -8

Structural class: the compounds so far containing a thiophene ring, fused or not.
SMILES | Env fusion inh | eIF4H FP inh | PABP polyA inh | MT1-MMP act inh | MT1-MMP act inh RFP | Rce1 inhib | CSC inhib | Yeast UUG start | others
CCn1c(SCc2nc3sc(C(=O)O)c(C)c3c(=O)[nH]2)nnc1-c1ccc(Cl)cc1 | -25 | 4 | 11 | -1 | 4 | i | -9 | nt
O=C(CSc1ncnc2sc3c(c12)CCCC3)c1ccccc1 | 19 | 1 | -4 | -4 | -5 | i | 35 | -21
CN(Cc1ccccc1)c1nc(CN2CCOCC2)nc2scc(-c3ccccc3)c12 | -4 | -1 | -1 | -8 | -7 | i | 19 | -20
O=S(=O)(Nc1cccc2c1ccc1cccn12)c1cccs1 | -108 | 32 | 19 | -13 | 2 | i | -3 | -11

Source: PubChem BioAssay (several laboratories)
